Screening data (PubChem)
NS1 inh = inhibitors of influenza NS1 protein function; Potency, µM (highest dose often 46.1 µM), inactives show at the highest dose activity, positive = more growth; AID 2326; hit rate 0.4% among 270,000; S. cerevisiae slowed by influenza A NS1, growth recovery by OD600; active means well fitted rising curve with a large enough effect; inconclusive means small, poorly fitted or top-dose-only effect; inactive means no such curve, though single readings can be large or run the other way; note: nearly all actives have a fitted effect of over 50% in size
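Compounds were scored for reversing the slow growth caused by influenza A NS1 in S. cerevisiae, measured by optical density at 600 nm. Assay medium contained 2% galactose at pH 6.0; NS1-free yeast of the same strain were the positive control.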
Cruzain inh Det = blocks cruzain activity in presence of Triton detergent; P25779; purified cruzain, Z-FR-AMC fluorescence, 0.01% Triton; Potency, µM, inactives show max response, negative = inhibition, most hits filed as inhibitors; hit rate 0.43% among 200,000; AID 1478;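 note: plate controls were neutral wells for no effect and buffer without enzyme for full effect; nearly all actives have a fitted effect of over 40% in size; top concentration of the series not given in the record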
Target sequence (P25779 123-467 limits assumed): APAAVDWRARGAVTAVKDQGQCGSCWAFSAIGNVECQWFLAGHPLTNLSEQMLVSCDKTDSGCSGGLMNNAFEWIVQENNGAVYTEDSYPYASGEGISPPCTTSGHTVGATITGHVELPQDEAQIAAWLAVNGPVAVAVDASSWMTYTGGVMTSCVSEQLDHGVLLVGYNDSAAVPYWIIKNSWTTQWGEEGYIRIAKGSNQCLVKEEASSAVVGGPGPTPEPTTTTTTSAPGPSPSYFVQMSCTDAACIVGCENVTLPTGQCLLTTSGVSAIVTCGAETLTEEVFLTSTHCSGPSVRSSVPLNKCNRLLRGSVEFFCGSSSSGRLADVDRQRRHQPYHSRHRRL
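Cysteine protease activity tested under reducing, mildly acidic conditions (100 mM sodium acetate pH 5.5, 5 mM DTT) plus 0.01% Triton X-100. Cruzain 1.5 nM; substrate Z-FR-AMC 2 uM; 15 min compound preincubation at room temperature.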
Lassa entry inh = inhibitors of Lassa virus binding or cell entry; Potency, µM (titrated, usually from 37.9 µM), without a hit: at the highest dose activity change, negative = inhibition, usual class: inhibitors; hit rate 1.2% among 300,000; Lassa virus pseudotype entry inhibition, cell reporter; control for the full effect not named in the record; AID 540256; active means well fitted inhibition curve with a large enough effect; inconclusive means small, poorly fitted or top-dose-only effect, or effect the other way; inactive means flat fitted curve, though single readings scatter; tested in HEK293 cells; note: % is set by controls: 0 for no effect and ±100 for the full control effect; nearly all actives have a fitted effect of over 50% in size; luciferase read-out
SARS PLP yeast = inhibitors of SARS-CoV papain-like protease in yeast; S. cerevisiae expressing SARS-CoV PLpro, growth rescue; control for the full effect not named in the record; Potency, µM (series often up to 32.9 µM), inactives show top-dose activity, positive = growth rescue; hit rate 0.19% among 330,000; active means well fitted rising curve with a large enough effect; inconclusive means small, poorly fitted or top-dose-only effect; inactive means no such curve, though single readings can be large or run the other way; note: 0% is about no effect; nearly all actives have a fitted effect of over 55% in size; growth read by luminescence after 48 h
Cruzain inh noDet = cruzain (T. cruzi) inhibition without detergent; purified cruzain, Z-FR-AMC fluorescence, no detergent; Potency, µM, for the others: max response, negative = inhibition, actives largely listed as inhibitors; hit rate 2.3% among 200,000; AID 1476; P25779;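 note: plate controls were enzyme without inhibitor for no effect and buffer without enzyme for full effect; nearly all actives have a fitted effect of over 40% in size; top concentration of the series not given in the record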
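Detergent-free condition (0.00005% Triton X-100) in acetate buffer pH 5.5 with DTT. 1.5 nM enzyme and compound were pre-mixed 15 min, then 2 uM Z-FR-AMC substrate added; reaction progress from fluorescence change between first and third reads (60 s).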
RE007 growth inh = less growth of the S. pombe RE007 Vpr strain; S. pombe RE007 Vpr strain, BacTiter-Glo ATP luminescence, 24 h; control for the full effect not named in the record; Potency, µM (highest dose often 92.2 µM), for the others: at the top dose activity change, negative = less growth; hit rate 0.21% among 360,000; AID 651644; active = well fitted falling curve with a large enough effect; inconclusive = small, poorly fitted or top-dose-only effect; inactive = no such curve, though single readings can be large or run the other way;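 note: % is set by controls: 0 for no effect and ±100 for the full control effect; nearly all actives have a fitted effect of over 50% in size; the assay follows cell death caused by Vpr and the record does not say whether a fall means rescue or toxicity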
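Fission yeast RE007 carrying one integrated HIV-1 vpr copy, seeded at OD 0.01 in PMG+AL medium with 23 nL pinned compound. Grown 24 h at 30 degrees; viability read by BacTiter-Glo luminescence after 5 min.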
StopGo reporter = lowers the luciferase signal of an FMDV 2A StopGo reporter. Potency, µM (titrated, usually from 57.9 µM), without a hit: top-dose signal change, negative = less light. AID 1159524. human cells with a luciferase reporter of 2A StopGo recoding; control for the full effect not named in the record. hit rate 1.2% among 410,000; active = well fitted falling curve with a large enough effect; inconclusive = small, poorly fitted or top-dose-only effect; inactive = no such curve, though single readings can be large or run the other way; tested in HEK293T cells; note: % is set by controls: 0 for no effect and ±100 for the full control effect; nearly all actives have a fitted effect of over 45% in size; luciferase light after 4 h
MARV entry inh = blocks Marburg virus binding to or entry into cells. Marburg virus pseudotyped entry inhibition, cell reporter; control for the full effect not named in the record; about a third of the inactives were read at about 46 µM. Potency, µM (highest dose often 37.8 µM), for inactives: at the top dose activity change, negative = inhibition, actives largely listed as inhibitors. hit rate 1.8% among 300,000. AID 540276; active = well fitted inhibition curve with a large enough effect; inconclusive = small, poorly fitted or top-dose-only effect, or effect the other way; inactive = flat fitted curve, though single readings scatter; tested in HEK293 cells; about a fifth of its hits are not listed in these tables; note: % is set by controls: 0 for no effect and ±100 for the full control effect; luciferase read-out
Numbers without * were called inactive; ? = inconclusive; / = no result given; [ ] = remark or other dose. Unless noted, calls come from the whole dose curve; as a rule, active = well fitted curve in the direction sought with a large enough effect; inconclusive = small, poorly fitted or top-dose-only effect, or another doubt; inactive = no such curve, though single readings can be large; an effect the other way counts as inactive or inconclusive. Potency is the fitted concentration of half-maximal effect.

SMILES | NS1 inh | Cruzain inh Det | Lassa entry inh | SARS PLP yeast | Cruzain inh noDet | RE007 growth inh | StopGo reporter | MARV entry inh
COc1ccc(-n2ncc3c2ncn2nc(-c4ccc(OC)c(OC)c4)nc32)cc1 | / | -1.1% | 5.2%[46.1 µM] | / | -9.7% | / | 9.1% | 22.8%[46.1 µM]
O=C(CC(C(=O)O)c1ccccc1)Nc1cccc2ccccc12 (stereo not given) | 15.4% | 1.1% | 7.2% | 1.6% | -2.7% | 2.0% | -20.3% | ?
Cc1cccc(C)c1NC(=O)CN1C(=O)c2cccc3cccc1c23 | / | 1.2% | 3.2%[46.1 µM] | / | -19.7% | / | 7.0% | /
Cc1nnc(SCC(=O)N2CCOCC2)c2ccccc12 | 8.3% | -0.5% | -4.5% | 3.4% | -8.0% | 19.2% | -15.6% | 2.1%
CCCCOc1ccc(/C=C/C(=O)N(CC)CC(=O)Nc2ccc3c(c2)OCCO3)cc1OC | / | / | -19.2% | 3.6% | / | 18.7% | ? | ?
COc1ccc(CCNCC(O)COc2c(C)cccc2C)cc1OC (stereo not given) | -0.3% | / | 1.8%[46.1 µM] | 1.0% | / | 22.5% | -22.8% | ?
Cc1cc(C)cc(SCc2noc(C(=O)NCC3CCCO3)c2C(=O)O)c1 (stereo not given) | 23.4% | -2.7% | / | -2.1% | 5.0% | 0.1% | -1.1% | /
COc1cc(NC(=O)Nc2ccc3c(c2)OCO3)cc(OC)c1OC | / | / | -3.5% | 0.4% | / | 1.9% | -4.8% | 11.7%[46.1 µM]
COc1ccc(C2C(C(=O)c3cccs3)=C(O)C(=O)N2c2nnc(C)s2)cc1OC (stereo not given) | 18.0% | -3.0% | -13.4% | 4.1% | -0.6% | -2.6% | / | 4.6%
O=C(NCCc1ccccc1Cl)C1CC(=O)N(C2CCCCC2)C1 (stereo not given) | -2.0% | / | -29.7% | 0.8% | / | -3.5% | 2.2% | 3.3%[46.1 µM]
CC(NC(=O)N1CC1(C)C)c1ccccc1 (stereo not given) | / | / | 2.0%[46.1 µM] | / | / | -3.0% | 32.5%[activator] | 10.2%[46.1 µM]
Cc1cc(NC(=O)COC(=O)c2c(C)nn(Cc3ccccc3Cl)c2Cl)no1 | ? | 2.2% | ? | 9.5% | ? | 14.5% | 13.8% | ?
CCN(C1CCS(=O)(=O)C1)S(=O)(=O)c1ccc2ccccc2c1 (stereo not given) | / | / | 13.4% | 3.3% | / | 4.0% | 13.6% | 1.9%[46.1 µM]
Cc1ccsc1C(=O)N1CCCC(C(=O)c2cc(F)ccc2F)C1 (stereo not given) | -3.5% | / | / | -1.1% | / | -0.2% | -25.5% | /
Cc1cc(NC(=O)c2cc3ccccc3o2)ccc1NC(=O)c1ccccc1 | 3.3% | / | -2.9%[46.1 µM] | -8.6% | / | -29.3% | 10.2% | 2.5%[46.1 µM]
Cn1nnnc1SCCCNCc1cc(Br)ccc1OCc1ccccc1F | / | -3.9% | -10.5%[46.1 µM] | / | 7.4% | / | ? | ?
Cc1ccc(S(=O)(=O)c2cn(CC(=O)Nc3ccc(Cl)cc3)c3ccc(F)cc3c2=O)cc1C | / | -3.3% | -3.4%[46.1 µM] | / | ? | / | 4.0% | -11.2%[46.1 µM]
COc1ccc2c(c1)CCc1c(C(=O)Nc3ccc(OC)cc3OC)noc1-2 | / | 0.0% | 7.3%[46.1 µM] | / | -5.2% | / | 6.0% | 25.7%[46.1 µM]
COc1ccccc1C(=O)NCCc1nc2ccccc2[nH]1 | ? | 15.8µM* | 8.6% | -10.8% | 5.01µM* | -22.2% | ? | 19.6%
Cc1cccc(-c2nc3c4ccccc4n(Cc4cccc(Cl)c4)c(=O)n3n2)c1 | / | -0.1% | 13.9%[46.1 µM] | / | 0.9% | / | 15.0% | /
O=C(NC(=S)Nc1ccccc1N1CCOCC1)c1ccccc1F | 5.3% | / | -7.5% | / | / | -6.5% | -21.6% | -21.7%
CC(C)c1ccccc1N=C1SCCN1C1CCS(=O)(=O)C1 (stereo not given) | -11.2% | -0.1% | -1.7% | 5.2% | 2.5% | 5.5% | -25.1% | -5.8%
CC[n+]1c(/C=C/N(C)c2ccccc2)n(-c2ccccc2)c2ccc(-c3nc4ccccc4s3)cc21 | -144.3% | / | 2.51µM* | -27.1% | / | -13.8% | 6.31µM* | ?
Nc1nc(SCC(=O)Nc2cccc(S(=O)(=O)N3CCCCCC3)c2)n[nH]1 | 10.7% | / | 8.0% | 0.4% | / | -5.5% | -2.3% | ?
CCOc1ccc2c(c1)C(NC(C)=O)C(=O)N2CCN1CCOCC1 (stereo not given) | 0.8% | / | / | -0.3% | / | 5.2% | -6.8% | /
(next part)
SMILES | NS1 inh | Cruzain inh Det | Lassa entry inh | SARS PLP yeast | Cruzain inh noDet | RE007 growth inh | StopGo reporter | MARV entry inh
Cc1c(C(=O)Nc2cnccn2)oc2ccccc12 | -15.5% | -4.4% | 28.5%[14.3 µM] | 4.4% | -12.7% | -7.7% | 47.7%[activator] | -1.7%
O=[N+]([O-])c1cc(S(=O)(=O)Nc2ccccc2)ccc1NCc1ccccc1 | ? | -9.1% | -8.9% | -13.2% | 0.0% | 37.2% | -1.3% | ?
COc1ccc(N2C(=O)CC(N3CCN(c4ccccc4)CC3)C2=O)cc1 (stereo not given) | 2.6% | / | / | -9.5% | / | -7.4% | -10.0% | /
Cc1cc(C)n(C(C)CC(=O)Nc2ccc3c(c2)OCO3)n1 (stereo not given) | 1.2% | / | / | -1.1% | / | -11.4% | 21.2% | /
O=C(COC(=O)c1cncc(Br)c1)NCc1ccccc1 | / | / | 11.4% | -0.8% | / | -6.8% | 14.4% | -9.9%[46.1 µM]
N#C/C(=C\c1ccc(Cl)cc1Cl)c1nc(-c2cccc(Cl)c2)cs1 | / | 1.9% | 3.9%[46.1 µM] | / | 6.6% | / | -14.1% | /
COc1cccc(C(=O)/C=C/Nc2cc(C)ccc2O)c1 | -16.2% | -14.2% | -13.6% | -16.1% | -10.2% | -13.8% | 20.3% | ?
Cc1cccc(NS(=O)(=O)c2cnc[nH]2)c1 | -5.9% | 1.7% | -5.7% | 1.6% | 7.4% | -21.5% | 3.5% | -1.5%
CC(=O)N1CCc2cc(S(=O)(=O)NCCC(=O)N3CCN(Cc4ccccc4)CC3)ccc21 | -3.7% | 1.2% | ? | 4.7% | -0.4% | 7.4% | ? | 2.9%
COc1ccc(NC(=O)C2CCN(S(=O)(=O)c3cc(-c4noc(C)n4)ccc3C)CC2)cc1 | / | 0.4% | 16.2%[46.1 µM] | / | 18.0% | / | 0.0% | /
CC1Cc2cc(/C(O)=C3/C(=O)C(=O)N(CC4CCCO4)C3c3ccco3)ccc2O1 (stereo not given) | 3.5% | -6.0% | 17.5% | -0.3% | -13.0% | -4.8% | 3.3% | 16.2%
COc1cccc(C(C#N)N2CCCCC2)c1O (stereo not given) | -8.1% | 0.1% | 5.5% | 4.4% | -4.5% | -8.0% | 19.4% | -0.3%
COCCN(C(=O)COC(=O)COc1ccc2ccccc2c1)c1c(N)n(Cc2ccccc2)c(=O)[nH]c1=O | / | / | -2.8% | / | / | -17.6% | -15.8% | -1.0%
CCOC(=O)c1nnc(-c2ccccc2)o1 | -6.2% | 2.0% | ? | -3.2% | -15.4% | -3.9% | 15.1% | 12.1%
CCOc1cc(/C=C(\C#N)C(=O)Nc2ccc(C)cc2)ccc1OCc1cc(=O)n2nc(CC)sc2n1 | / | -0.1% | -24.6%[46.1 µM] | / | -10.9% | / | -11.8% | -7.6%[46.1 µM]
COc1ccc(OC)c(-c2csc(NC(=O)CSc3ccc([N+](=O)[O-])cc3)n2)c1 | 12.9% | -10.4% | ? | -9.7% | ? | 11.6% | ? | ?
CN(C)c1ccc(CNn2cnnc2SCC(=O)NC(C)(C)C)cc1 | 3.5% | / | / | -0.2% | / | -7.1% | 5.0% | -5.4%[46.1 µM]
CC(=O)c1nc2ccccc2n1Cc1ccccc1 | -3.6% | / | / | 0.2% | / | 5.9% | 15.7% | /
CCn1c(CC(=O)Nc2ccc(F)cc2)nnc1SCC(=O)Nc1nnc(C)s1 | 17.4% | / | / | -0.5% | / | -9.8% | 21.3% | -24.8%[46.1 µM]
CN(C(=O)CS(=O)(=O)Cc1ccccc1Cl)c1ccccc1 | -4.3% | / | -12.1%[46.1 µM] | -0.1% | / | -2.3% | 6.0% | 22.0%[46.1 µM]
Cc1ccc(CNC(=O)c2ccc(Cn3c(SCc4ccc(F)cc4)nc4cccnc43)cc2)o1 | / | -9.4% | / | / | -0.4% | / | -11.8% | ?
Cc1ccc(C(=O)N2CCC(Cc3ccccc3)CC2)cc1[N+](=O)[O-] | / | / | -18.1% | -0.1% | / | 4.9% | ? | ?
Cc1nnc(SCC(=O)NC2CCS(=O)(=O)C2)n1Cc1ccccc1 (stereo not given) | / | / | -3.4% | 2.7% | / | 60.0% | 7.2% | 14.7%[46.1 µM]
CCOc1ccc2[nH]cc(C(=O)NCc3ccc(F)cc3)c(=O)c2c1 | 13.2% | / | / | -11.7% | / | 0.5% | 0.0% | /
COC(=O)C(NC(C)=O)(Nc1nc2ccc(C)cc2s1)C(F)(F)F (stereo not given) | 8.91µM* | 0.9% | -13.5% | 22.1% | 0.3% | 7.1% | -1.4% | 1.6%
Cc1ccccc1NC(=O)CSc1nc(COc2ccccc2)nc2ccccc12 | -2.9% | 0.2% | -1.0% | -12.2% | 7.6% | -1.9% | / | -29.4%
